High-throughput results from PubChem.
BJeLR lethal: kills HRASV12-expressing BJeLR cells | BJeLR (HRASV12) viability, CellTiter-Glo ATP luminescence, 48 h; reference of the scale not given here | inhibition, % (concentration not given with the values) | 300,000 compounds, 0.17% hits;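 active = replicate mean above 50%; inconclusive = above 50% but judged a plate artefact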;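 note: 50 nL library stock added to about 25 µL; numbers are from one replicate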
PrP 5UTR inh: suppresses PrP 5' UTR mRNA reporter expression; cell-based PrP 5' UTR mRNA reporter, plate reader; inhibition, % (concentration not given with the values); 340,000 compounds, 0.35% hits;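 active = every replicate at 50% or more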;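 note: 0 = median of the neutral control wells; tested in H4 reporter cells; numbers are from one replicate; inactives centre near -14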
Bead autofluor: compound fluorescence in toxin protease inhibitor counterscreen | compound autofluorescence counterscreen, microsphere flow cytometry; hits give high values | fluorescence intensity (no concentration beside the values) | 360,000 compounds, 3.1% hits | AID 624483;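 active = at least 3 SD above the mean of all compounds, about 16000 in these data; inconclusive = too few beads counted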;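 note: 100 nL of 1 mM stock went into each well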
Mtb hypoxia inh: inhibitors of hypoxia-regulated fluorescent reporter in Mycobacterium tuberculosis. M. tuberculosis hypoxia-regulated fluorescent reporter, fluorescence. fluorescence inhibition, % (test concentration not listed). AID 1159583. 300,000 compounds, 0.1% hits;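 active = 35 to 45% if threefold the growth effect, above 45% if 1.5-fold the growth effect; inactive = the rest, general growth blockers included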;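 note: wells of about 50 µL received 100 nL stock; 0% = vehicle wells and 100% = reference inhibitor wells; whole bacteria with a GFP reporter of the hypoxia response; strong numbers were not always called active; many hits fall short of the cut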
RN4220 kill: kills Staphylococcus aureus RN4220. S. aureus RN4220 growth, OD600, 16 h. inhibition, % (no concentration beside the values). AID 1259311. 330,000 compounds, 0.33% hits;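 active = z-score of -3 or lower and OD600 up to 0.18 on both plates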;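 note: plate controls were untreated cells for no effect and reference antibiotic for full effect; stock transfer was 100 nL into about 80 µL; one replicate is shown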
ugtP null kill: kills S. aureus RN4220 lacking UgtP. growth inhibition, % (no concentration beside the values). 330,000 compounds, 0.54% hits. S. aureus RN4220 ugtP deletion, OD600 growth, 16 h; some inactives read as strong as hits;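 active = z-score under -3 and OD600 up to 0.15 on both plates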;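 note: plate controls were untreated wells for no effect and antibiotic for full effect; wells of about 80 µL received 100 nL stock; the first replicate is given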
Mtb hypoxia inh growth: second read-out of Mtb hypoxia inh, no call of its own (marks repeat the call); growth inhibition, %; measured here: M. tuberculosis growth (absorbance);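 0% = vehicle and 100% = reference antibiotic; read after six days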
* = called active by the depositor; u = inconclusive; x = not tested or not shown. Hits appear at their usual frequency, and some 3.9% of all compounds hit somewhere here.

cpd | SMILES | BJeLR lethal | PrP 5UTR inh | Bead autofluor | Mtb hypoxia inh | Mtb hypoxia inh growth | RN4220 kill | ugtP null kill
1 | Cc1ccc(NC(=O)CSc2nnc(C)c(=O)n2N)cc1Cl | -13 | -19 | 4869 | 4 | -6 | 2.9 | 4
2 | CC1Oc2ccccc2N(CC(=O)NC2CC2)C1=O (stereo unspecified) | -11 | -2 | 3023 | -1 | -9 | 3.8 | 10
3 | O=C(Oc1cc2oc(=O)cc(-c3ccccc3)c2cc1Cl)C1CCCCC1 | 7 | -15 | 4830 | x | x | -5.0 | -6
4 | O=C(O)Cc1ccc(C(=O)c2cccs2)s1 | -2 | -4 | 3678 | x | x | 8.1 | -4
5 | CN1CSC(=S)N(C)C1 | 0 | -24 | 2407 | x | x | 3.3 | -2
6 | CSc1ccc(CN(C)C(=O)C(c2ccccc2)c2ccccc2)cc1 | 2 | -28 | 4680 | 2 | -2 | 4.8 | 26
7 | O=C(OCC(=O)C12CC3CC(CC(C3)C1)C2)c1cccnc1Cl | -12 | -20 | 2423 | 1 | 8 | 1.6 | 0
8 | Cc1cc(Cl)ccc1OCCCC(=O)Nc1ccc(S(=O)(=O)Nc2ncccn2)cc1 | -1 | -10 | 5370 | 2 | 8 | 1.9 | 12
9 | CCC(C)C(N)c1cn(C(CCCN=C(N)N)C(=O)N2CCNCC2)nn1 (stereo unspecified) | x | x | x | 1 | 0 | 4.7 | -4
10 | COC(=O)Nc1nnc(CC(=O)Nc2ccccc2C)s1 | 1 | -3 | 4496 | -1 | 7 | -1.4 | 0
11 | O=C1c2ccccc2S(=O)(=O)c2cc(C(=O)N3CCN(C(=O)c4ccccc4)CC3)ccc21 | 7 | -15 | 3676 | -12 | -10 | 5.6 | 0
12 | Cn1c(-c2csc(-c3ccccc3)n2)n[nH]c1=S | 4 | -36 | 2634 | 11 | 8 | 16 | 0
13 | CC(C)c1c(C(=O)NN=Cc2ccc(Cl)cc2Cl)nnn1-c1nonc1N | x | x | x | -5 | 1 | 2.9 | -2
14 | CC(=O)Oc1ccccc1/C=C/c1nc2ccccc2c(=O)o1 | 3 | 31 | 3729 | 2 | 8 | 3.3 | 5
15 | COc1ccccc1NC(=O)c1ccc(S(=O)(=O)N2CCC(C)CC2)cc1 | 1 | 5 | 3054 | 8 | 2 | 3.4 | -1
16 | COc1ccc(C(=O)COC(=O)Cn2nnc3ccccc32)cc1Br | 7 | -1 | 10795 | -7 | -18 | 0.8 | 2
17 | Cc1nnc(N2CCOCC2)c2nn(-c3cccc(Cl)c3)c(C)c12 | -6 | 0 | 11050 | 8 | 4 | 11 | -11
18 | CCOC(=O)N1CCN(c2c(F)cc3[nH]c(=S)[nH]c3c2Br)CC1 | -3 | -22 | 9342 | -1 | 9 | 5.0 | 10
19 | COC(=O)c1c(-c2ccc(C(C)(C)C)cc2)csc1NC(=O)C1C2CCC(O2)C1C(=O)O (stereo unspecified) | 3 | -10 | 2022 | 2 | 5 | 9.8 | 5
20 | CC(C)(C)P(=O)(N1CCOCC1)N1CCOCC1 | -12 | -20 | 4434 | -1 | -3 | -1.0 | 5
21 | COc1cccc(C2c3[nH]c4ccccc4c3C[C@H]3C(=O)N(c4ccccc4C(=O)N4CCC(C(=O)O)CC4)C(=O)N23)c1 (stereo partly specified) | 2 | -3 | 6174 | x | x | 3.4 | 9
22 | OCC1OC(n2cnc3c(SCc4ccccc4)nc(F)nc32)C(O)C1O (stereo unspecified) | x | -9 | 3652 | 7 | 2 | 0.7 | -3
23 | O=C(NC1CC1)c1ccc2c(c1)ncn2C1CCCC1 | 5 | -36 | 6234 | 13 | 9 | 2.9 | 1
24 | O=C(CCc1c[nH]c2ccccc12)OCc1cccc([N+](=O)[O-])c1 | 10 | -28 | 3709 | 9 | 0 | 0.4 | 9
25 | O=C(OC1CCOC1=O)c1cc(S(=O)(=O)N2CCOCC2)c(Cl)cc1Cl (stereo unspecified) | x | -15 | 4039 | 3 | -3 | 1.2 | 1
26 | CCC(C)(C)n1nnnc1C(c1cccnc1)N1CCCc2ccccc21 (stereo unspecified) | -4 | -17 | 8827 | 16 | 10 | 11 | 4
27 | CCN1C(=O)c2ccccc2S(=O)c2ccc(C(=O)NC3CC3)cc21 (stereo unspecified) | -1 | -24 | 7112 | 4 | 10 | -2.6 | -5
28 | O=C(Nc1cccc(NC(=O)c2cccnc2)c1)c1ccccc1 | 5 | -23 | 4781 | 1 | -7 | 7.6 | 11
29 | CCOC(=O)c1c(NC(=O)COC(=O)Cn2cnc3ccccc32)sc2c1CCC(C)C2 (stereo unspecified) | x | -7 | 2001 | 9 | 7 | 5.8 | -12
30 | O=C(NC1CCCC1)c1ccc(Br)s1 | 1 | -25 | 17144* | x | x | 7.9 | 4

A draw from above in order of number of heavy atoms, highest first.
cpd | SMILES | BJeLR lethal | PrP 5UTR inh | Bead autofluor | Mtb hypoxia inh | Mtb hypoxia inh growth | RN4220 kill | ugtP null kill
3 | O=C(Oc1cc2oc(=O)cc(-c3ccccc3)c2cc1Cl)C1CCCCC1 | 7 | -15 | 4830 | x | x | -5.0 | -6
17 | Cc1nnc(N2CCOCC2)c2nn(-c3cccc(Cl)c3)c(C)c12 | -6 | 0 | 11050 | 8 | 4 | 11 | -11
14 | CC(=O)Oc1ccccc1/C=C/c1nc2ccccc2c(=O)o1 | 3 | 31 | 3729 | 2 | 8 | 3.3 | 5
23 | O=C(NC1CC1)c1ccc2c(c1)ncn2C1CCCC1 | 5 | -36 | 6234 | 13 | 9 | 2.9 | 1
30 | O=C(NC1CCCC1)c1ccc(Br)s1 | 1 | -25 | 17144* | x | x | 7.9 | 4

Further entries follow.
cpd | SMILES | BJeLR lethal | PrP 5UTR inh | Bead autofluor | Mtb hypoxia inh | Mtb hypoxia inh growth | RN4220 kill | ugtP null kill
31 | O=C(NCc1ccco1)C1CCCN(S(=O)(=O)c2cccc3nsnc23)C1 (stereo unspecified) | 5 | -15 | x | x | x | -1.1 | -5
32 | NNC(=O)c1cc(Br)cs1 | 13 | -17 | 2131 | 18 | 6 | 4.3 | -3
33 | CCCCCCCCn1ccc(=N)cc1 | 21 | -10 | x | 8 | 6 | 4.2 | 14
34 | CNc1ccc(/C=C2\CSc3ccccc3C2=O)cc1[N+](=O)[O-] | -11 | -29 | 4055 | 2 | 4 | 13 | 3
35 | COc1ccc(-c2nnn(CC(=O)NC3CCCc4ccccc43)n2)cc1OC (stereo unspecified) | -9 | -10 | 3823 | 2 | 0 | 2.3 | 1
36 | COc1cc(OC)cc(-c2c(C#Cc3ccsc3)c3cc(-c4ccc(N(C)C)nc4)ccc3n2C)c1 | x | -13 | 2898 | 6 | 8 | 7.0 | 5
37 | CC1CCCC(NC(=O)CCNC(=O)c2ccc(Cl)cc2)C1C (stereo unspecified) | -5 | -10 | u | -5 | 2 | 4.9 | 13
38 | COc1ccccc1OCCNC(=O)C(CCSC)NS(=O)(=O)c1ccccc1F (stereo unspecified) | 6 | -11 | 4919 | 6 | 3 | 0.5 | 1
39 | CCN1CCN(C(=O)c2ccc3nc(-c4ccccc4)c(-c4ccccc4)nc3c2)CC1 | 3 | -19 | 5647 | 5 | 6 | 2.2 | 4
40 | COc1ccc(S(=O)(=O)Nc2ccccc2C(=O)N2CCOCC2)cc1F | 7 | 1 | 5166 | 3 | 3 | -2.0 | 5
41 | COC(=O)Cn1c(=O)sc2ccccc21 | -1 | -29 | 9658 | -1 | 0 | 1.3 | 0
42 | Cc1ccc(S(=O)(=O)NC(Cc2cnc[nH]2)C(=O)O)cc1 (stereo unspecified) | 23 | -24 | 2075 | 2 | 4 | 1.7 | 5
43 | Cc1ccc(-n2ncc3c2CC(C)(C)CC3NC(=O)CCc2c(C)noc2C)cc1 (stereo unspecified) | 4 | -16 | 5535 | 9 | 9 | 3.5 | 0
44 | COc1ccc(OC)c(NS(=O)(=O)c2c(C(=O)N3CCCCCC3)c(C)n(C)c2C)c1 | 13 | -6 | 5962 | x | x | x | x
45 | CC1CCCCC12NC(=O)N(CC(=O)N(C)Cc1nc3ccccc3c(=O)[nH]1)C2=O (stereo unspecified) | x | -12 | 2820 | 4 | 3 | 5.3 | 9
46 | COc1nc(C)ccc1-c1noc(-c2cccs2)n1 | 12 | -125 | x | 8 | 11 | 5.5 | 4
47 | COc1cccc(C(=O)Nc2nc3c(c(=O)[nH]2)CCCC3)c1 | 3 | -28 | 4062 | x | x | 0.0 | 4
48 | CCOc1ccc(S(=O)(=O)N2CCC(C(=O)N3CCCCCC3)CC2)cc1Cl | 5 | -13 | 5941 | 17 | 7 | -1.3 | 1
49 | C/C(=N/NC(=O)c1cccs1)c1cccs1 | -12 | -73 | 5171 | x | x | x | x
50 | CC1CN(Cc2nc3c(c(=O)n(C)c(=O)n3C)n2CC(=O)c2ccccc2)CC(C)O1 (stereo unspecified) | 4 | -14 | 10123 | -1 | 1 | 6.5 | 7
51 | O=C(NC1CCCCC1)NC12CC3CC(CC(C3)C1)C2 | -11 | -3 | 2636 | 3 | -5 | 1.5 | 4
52 | O=C(NNC(=O)c1cccc(O)c1)Nc1ccc([N+](=O)[O-])cc1 | 1 | -16 | 4381 | 9 | 8 | 3.9 | 3
53 | CC1CN(S(=O)(=O)c2cc(C(=O)NCc3ccncc3)ccc2Cl)CC(C)O1 (stereo unspecified) | x | -6 | 5397 | -1 | 1 | 4.1 | 5
54 | OC(CNCc1ccc(Cl)cc1)COc1ccccc1 (stereo unspecified) | 1 | 0 | 4203 | 18 | 10 | 0.9 | -2
55 | C=CCn1c(SCc2nc3scc(-c4ccccc4)c3c(=O)[nH]2)nnc1-c1ccccc1F | 1 | -26 | 2668 | -5 | -2 | -3.3 | -3
56 | CC(C)(Oc1ccc(C2CC2(Cl)Cl)cc1)C(=O)O (stereo unspecified) | x | -22 | 7430 | 3 | -3 | 4.0 | 5
57 | COCCN(C(=S)Nc1ccccc1OC)C1CCN(C(C)C)CC1 | 0 | 4 | 4419 | 5 | -5 | 1.0 | 3
58 | COC(=O)NCC(c1ccco1)N1CCN(c2ccc(OC)cc2)CC1 (stereo unspecified) | 4 | -21 | 5838 | 12 | 7 | 0.2 | -7
59 | COc1ccc(/C=N/NC(=O)CN(CCc2ccccc2)S(=O)(=O)c2ccc(NC(C)=O)cc2)cc1OC | 4 | -11 | 2606 | x | x | x | x
60 | Nc1nc2ccccc2n1CCN1CCCC1 | -3 | -19 | 10834 | 5 | 1 | 3.3 | 1

Random excerpt: two records from the list
cpd | SMILES | BJeLR lethal | PrP 5UTR inh | Bead autofluor | Mtb hypoxia inh | Mtb hypoxia inh growth | RN4220 kill | ugtP null kill
59 | COc1ccc(/C=N/NC(=O)CN(CCc2ccccc2)S(=O)(=O)c2ccc(NC(C)=O)cc2)cc1OC | 4 | -11 | 2606 | x | x | x | x
33 | CCCCCCCCn1ccc(=N)cc1 | 21 | -10 | x | 8 | 6 | 4.2 | 14

Next results follow:
cpd | SMILES | BJeLR lethal | PrP 5UTR inh | Bead autofluor | Mtb hypoxia inh | Mtb hypoxia inh growth | RN4220 kill | ugtP null kill
61 | O=C(NCCCN1CCOCC1)c1cccc(NC(=O)c2ccccc2)c1 | -18 | -24 | 3980 | x | x | x | x
62 | CCNC(=S)Nc1cc(OCC)c(NC(=O)c2ccco2)cc1OCC | -5 | -16 | 2245 | 5 | 2 | 19 | 7
63 | CCOC(=O)N1CCC(Nc2c(NCCCN(CC)CC)c(=O)c2=O)CC1 | -5 | -23 | 5701 | 6 | 4 | 3.4 | 12
64 | CSC[C@H](NC(=O)COc1cc2c(c3oc(=O)cc(C)c13)CCC(C)(C)O2)C(=O)O | 7 | -21 | 4258 | 7 | 3 | 4.9 | 3
65 | O=C1[C@H](O)[C@@H](O)C(=O)N1Cc1ccccc1 | -6 | -9 | 3087 | 9 | -6 | 3.1 | 4
66 | COc1ccccc1-c1nnn(CC#N)n1 | -2 | -6 | 12676 | 3 | 5 | 3.0 | 2
67 | COC(C[C@H]1O[C@@H]1[C@@H](O)[C@H](C)OCc1ccccc1)OC | -2 | -43 | 3972 | x | x | x | x
